Bm FixLJ act: B. multivorans fixK reporter activation; B. multivorans fixK-promoter GFP reporter, 18 h; active compounds read high; z-score (no concentration beside the values); hit rate 0.3% among 29,000; AID 1918990;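 active means replicate mean overnight rise in green fluorescent reporter signal, 3 or more SD over negative controls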;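 further: score is relative to vehicle wells of the plate; 300 nL library stock went into each well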
Numbers without * were called inactive. This is a subset. The share of hits here may be higher or lower than overall.

SMILES	Bm FixLJ act
CC1CCCN(S(=O)(=O)c2ccc(NC(=O)c3nc(SC(C)C)ncc3Cl)cc2)C1 (configuration not stated)	-1
COc1cc(-c2ccc3[nH]c(CO)c(C)c3c2)cc(OC)c1OC	-1.1
CCCCN(CCCC)CCNC(=O)Cn1nc(C)n2c(cc3sccc32)c1=O	-1.2
Cc1ccc(CNC(=O)C2CCN(Cc3nc(-c4ccccc4C)oc3C)CC2)cc1	-1.6
CCCC1COCCN1Cc1c(C(=O)N2CCCC2)nc2sccn12 (configuration not stated)	-1.7
Cn1ccc(NC(=O)CN2CCCC(CNC(=O)Cc3cccnc3)C2)n1 (configuration not stated)	0.39
CCc1ccc(Oc2nc3c(C)cccn3c(=O)c2/C=C(\C#N)c2nc3ccccc3[nH]2)cc1	-1.2
Cc1coc2c(C)c3oc(=O)c(CC(=O)N4CCCCC4)c(C)c3cc12	-1.1
CCCCN(C)C(=O)Cn1c(-c2ccccc2)nn(-c2cccc(C)c2)c1=O	0.19
COc1cccc(CNC(=O)Cn2c(C)c3cnn(-c4ccccc4)c(=O)c3c2C)c1	-2.3
CCOc1ccc(CCNC(=O)Cn2nc(CC)n3c(cc4sccc43)c2=O)cc1	-0.21
COc1ccccc1CNC(=O)c1oc2ccc3c(c2c1C)C(=O)CC(C)(C)O3	-2.5
CCC(C)NC(=O)Cn1ncc2c(C)n(Cc3ccc(F)cc3)c(C)c2c1=O (configuration not stated)	-2.6
Cc1cccc(N2CCN(C(c3ccc(F)cc3)c3nnc(-c4ccccc4)o3)CC2)c1C (configuration not stated)	0.79
CCc1ccccc1NC(=O)Cc1c(C(=O)O)[nH]c2ccc(Cl)cc12	0.12

Shown with bars between the fields: entries from further up.
compound | Bm FixLJ act
CCCCN(C)C(=O)Cn1c(-c2ccccc2)nn(-c2cccc(C)c2)c1=O | 0.19
COc1ccccc1CNC(=O)c1oc2ccc3c(c2c1C)C(=O)CC(C)(C)O3 | -2.5
CCOc1ccc(CCNC(=O)Cn2nc(CC)n3c(cc4sccc43)c2=O)cc1 | -0.21
COc1cc(-c2ccc3[nH]c(CO)c(C)c3c2)cc(OC)c1OC | -1.1

(listing goes on)
SMILES	Bm FixLJ act
COc1ccc(-c2cc(C(=O)Nc3cccnc3Cl)no2)cc1OC	1.5
CCOc1ccc(-c2cc3nc(C4CCN(C(=O)OC(C)(C)C)CC4)c(C(=O)Nc4ccc(C)cc4Cl)cn3n2)cc1	-1.8
COc1ccccc1-c1nc(SCC(=O)c2ccccc2)n[nH]1	-1.9
Cc1ccc(-c2nn(CCC(N)=O)c(=O)c3ccccc23)cc1	-2.7
Cc1ccc(C(=O)COC(=O)CCC(=O)Nc2ccc(Oc3cc(C)ccc3C(C)C)cc2)cc1	-0.66
CCOc1ccc2oc(=O)cc(CN3CCN(Cc4ccc(F)cc4)CC3)c2c1	1.5
COc1ccccc1-n1cc(C(=O)N2CCC3(CC2)CN(C)C(=O)O3)cn1	1.4
CCNc1nc(C)c(C(=O)N(C)Cc2nc3ccccc3s2)s1	-1.7
O=c1c(-c2cc(-c3ccc(F)cc3)nc3c2COc2ccc(Cl)cc2-3)coc2ccc(F)cc12	0.2
Cc1nc2c(c(C)nn2C(C)(C)C)c(C)c1CCC(=O)Nc1ccc(Br)cc1Br	-0.05
NC(Cc1cnc[nH]1)C(=O)Nc1cccc(-c2ccc(Cl)cc2)c1 (configuration not stated)	0.49
O=C(Nc1ccc(OCc2cc(=O)n3c4c(sc3n2)CCCC4)cc1)c1ccc(F)cc1	-2.9
Cc1ccc(C)c(N2CCN(c3nc4ccc(Cl)cc4n4cnnc34)CC2)c1	-1.2
CCOc1ccc(C(=O)Nc2ccc(Cl)c(-c3nc4cc(C)cc(C)c4o3)c2)cc1	-0.81
COc1ccc(CN(Cc2ccco2)C(=O)COc2ccccc2OC)cc1	-0.75
CCOc1ccccc1NC(=O)c1sc2nc(C)cc(C)c2c1N	1.1
O=C1CC2(CCN(c3nc(-c4ccccc4)nc4c3CCC4)CC2)CN1	-1
CCSc1ncc(Cl)c(C(=O)N(Cc2ccc(N(C)C)cc2)Cc2ccco2)n1	0.75
CC(O)c1cc2n(n1)CCN(C(=O)CCCc1c[nH]c3ccccc13)C2 (configuration not stated)	-3.6
CCN1C(C(=O)c2ccccc2)=C(OC(=O)c2ccc(Cl)cc2)c2ccccc2S1(=O)=O	0.92
COCCNC(=O)c1ccc(OC2CCN(CC(C)C)CC2)c(Cl)c1	-0.77
CCOC(=O)c1ccc(NC(=O)/C(C#N)=C/c2ccc(OC)cc2)cc1	-0.65
CC1CCN(S(=O)(=O)c2ccc3c(c2)N(CC(=O)NC(C)c2ccccc2)C(=O)CO3)CC1 (configuration not stated)	-0.06
Cc1ccccc1-n1c(=O)c2c3c(sc2n2cnnc12)CCCC3	-2.8
Cc1cccc(NC(=O)CN(C)S(=O)(=O)c2ccc3c(c2)c(=O)n(C)c(=O)n3C)c1C	0.13
COc1ccc(NC(=O)NCc2cccn2Cc2ccc(F)cc2)cc1OC	-0.69
CN(C)S(=O)(=O)N1CCC2(CC1)OCCc1c2[nH]c2ccccc12	0.89
CCCC1C=CCN1C(=O)Nc1ccccc1S(=O)(=O)NC (configuration not stated)	0.92
O=C(Cn1c(=O)n(-c2cccc(Cl)c2)c(=O)c2sc3ccccc3c21)N1CCCC1	-1.1
CC(=O)N1c2c(cc(Br)cc2S(=O)(=O)Nc2ccccc2C)CC1C (configuration not stated)	-0.87

Five entries picked at random from the list so far:
SMILES	Bm FixLJ act
CCSc1ncc(Cl)c(C(=O)N(Cc2ccc(N(C)C)cc2)Cc2ccco2)n1	0.75
CCOC(=O)c1ccc(NC(=O)/C(C#N)=C/c2ccc(OC)cc2)cc1	-0.65
CCN1C(C(=O)c2ccccc2)=C(OC(=O)c2ccc(Cl)cc2)c2ccccc2S1(=O)=O	0.92
CCCC1C=CCN1C(=O)Nc1ccccc1S(=O)(=O)NC (configuration not stated)	0.92
O=C(Cn1c(=O)n(-c2cccc(Cl)c2)c(=O)c2sc3ccccc3c21)N1CCCC1	-1.1

The listing continues:
SMILES	Bm FixLJ act
CCOC(=O)c1ccccc1NC(=O)CCc1nc(-c2ccc(C)cc2)no1	1.6
Cc1ccc(C#N)c(=O)n1CC(=O)Nc1ccccc1C(F)(F)F	0.05
CCOc1ccc(Cn2nnc(C(=O)Nc3cccc(SC)c3)c2N)cc1	-1.1
Cc1ccc(NC(=O)CSc2nc(=O)cc(N)n2-c2ccccc2)cc1	-16
O=c1c2sc3ccccc3c2n(Cc2ccccc2F)c(=O)n1CCc1ccccc1	0.82
CC(C)c1ccc(NC(=O)CC2Oc3ccccc3NC2=O)cc1 (configuration not stated)	-2.9
O=C(Nc1cccc(Cl)c1Cl)c1ccc2c(c1)N(Cc1cccc(Cl)c1)C(=O)c1ccccc1S2(=O)=O	0.92
COc1ccccc1NC(=O)c1sc2nc3c(cc2c1N)CN(Cc1ccccc1)CC3	2.4
CCn1cc(C(=O)NCCC(C)C)c(=O)c2cc(S(=O)(=O)N(C)C3CCCCC3)ccc21	-1.3
O=C(C1CCN(S(=O)(=O)c2cccc3nonc23)CC1)N1CCN(c2ccc(F)cc2)CC1	-1.3
Cc1c(NC(=O)CC(C)C)cccc1NC(=O)c1cccc(C(=O)O)c1	1.2
CC1CCN(C(=O)Cn2c(=O)oc3cc(S(=O)(=O)N4CCCCC4)ccc32)CC1	-0.25
CCOC(=O)c1ccc(N2C(=O)c3[nH]nc(-c4ccc(OC)cc4)c3C2c2cccc(O)c2)cc1 (configuration not stated)	1.8
O=C(Cn1nc(Cc2cccnc2)c2ccccc2c1=O)Nc1cccc(C(F)(F)F)c1	-2
O=C(NCCN1CCOCC1)c1ccc(-c2cc(C(F)(F)F)ccn2)cc1	-0.61
CCc1ccccc1NC(=O)C(CCSC)NS(=O)(=O)c1ccc2c(c1)oc(=O)n2C (configuration not stated)	0.98
COc1ccc2cc(-c3nc(Cl)c4c5c(sc4n3)CC(C)CC5)c(=O)oc2c1 (configuration not stated)	-0.11
CCC(=O)N1CCc2cc(S(=O)(=O)NC(Cc3ccccc3)C(=O)Nc3cccc(OC)c3)ccc21 (configuration not stated)	-0.84
CCN(CC)c1ccc2nc3c(=O)n(C)c(=O)n(C)c3nc2c1	-4.8
Cc1cc(C(=O)N2CCC3(CC2)CN(CC(C)c2ccccc2)C(=O)O3)n[nH]1 (configuration not stated)	-0.13
CS(=O)(=O)c1ccc(CC(=O)NC2(C(N)=O)CCCCCC2)cc1	-0.38
CN(C1CCCCC1)S(=O)(=O)c1ccc2c(c1)c(=O)c(C(=O)NCc1ccccc1Cl)cn2C	0.52
O=C(NCCCc1nc2ccccc2n1Cc1ccccc1Cl)C1CCCCC1	-1.4
O=C(CN1C(=O)COc2ccc(S(=O)(=O)N3CCOCC3)cc21)N1CCN(c2ccc(F)cc2)CC1	-0.42
CCCOc1ccc(C(=O)Nc2ccc3oc(-c4ccc(N(C)C)cc4)nc3c2)cc1	1.1
CC(=O)NCC1CCN(C(=O)c2cccc3c2CCC3=O)CC1	-1.5
CCOc1ccccc1N(C)C(=O)Cn1cnc2sc(C)c(S(=O)(=O)N3CCC(C)CC3)c2c1=O	0.54
CC1(c2ccc(Cl)cc2)CC(C)(C)N(C(=O)c2cccc(F)c2)c2ccccc21 (configuration not stated)	1.5
Cc1ccccc1NC(=O)CSc1nc(-c2ccc(F)cc2)c2cccc(C)c2n1	-1.2
CCn1c(C(=O)NCc2ccccc2OC)cc2sccc21	-0.34

In the list so far, these contain a CF3 group.
SMILES	Bm FixLJ act
Cc1ccc(C#N)c(=O)n1CC(=O)Nc1ccccc1C(F)(F)F	0.05
O=C(Cn1nc(Cc2cccnc2)c2ccccc2c1=O)Nc1cccc(C(F)(F)F)c1	-2
O=C(NCCN1CCOCC1)c1ccc(-c2cc(C(F)(F)F)ccn2)cc1	-0.61

The list continues:
SMILES	Bm FixLJ act
CC(C)NC(=O)CN1CCN(Cc2cc(=O)c3cc(F)ccc3[nH]2)CC1	0.25
O=C(CCCn1c(=O)c2ccccc2n(Cc2cccc(Cl)c2)c1=O)NCCc1ccc(Cl)cc1	-2.3
COC(=O)c1ccc(NC(=O)c2cc(=O)c3ccc(C)cc3o2)cc1	-0.22
N#Cc1c(C(F)(F)F)cc(-c2cccs2)nc1SCC(=O)Nc1ccc(Cl)cc1	-8
CC1=C(C(=O)OCc2ccc(C)cc2)C(c2ccccc2Cl)CC(=O)N1 (configuration not stated)	-1.6
Cc1ccc2oc(C(=O)Nc3ccc(S(=O)(=O)N(C)Cc4ccccc4)cc3)cc(=O)c2c1	-1.7
Cc1ccc2[nH]c(=O)c3cc(C(=O)N(CCCOC(C)C)Cc4ccco4)sc3c2c1	-1.8
Cn1c(=O)oc2cc(S(=O)(=O)N3CCCC(C(=O)N4CCN(c5ccc(F)cc5)CC4)C3)ccc21 (configuration not stated)	-2.1
COc1ccc(NC(=O)Cn2c(=O)oc3cc(S(=O)(=O)N4CCCC4)ccc32)cc1OC	-0.75
COc1cc(OC)c(C2C(C(=O)Nc3ccccc3)=C(C)Nc3ncnn32)cc1OC (configuration not stated)	-1.1
Cc1cccc(NC(=O)CCCn2c(C)c3cnn(-c4ccccc4)c(=O)c3c2C)c1C	-1.2
CC1CCc2c(sc3nnn(CC(=O)Nc4ccccc4Cl)c(=O)c23)C1 (configuration not stated)	-3
Cn1c(C(=O)N2CCCC3(CC2)CNC(=O)O3)ccc1-c1ccccc1 (configuration not stated)	-0.66
CCCCN(CC)CCCNC(=O)c1cn(C)c(=O)c2c1c1ccccc1n2C	-0.06
CC(C)C1CN(c2ccnc(N)n2)CCC(=O)N1Cc1ccc(F)cc1 (configuration not stated)	-0.61
O=C(c1cnc2c(c1)COc1ccccc1-2)c1ccccc1O	1.7
CC(C)CCC1=NC2(CCN(C(=O)CCN3CCCCC3=O)CC2)C(=O)N1	-2.1
CCC(CC)c1nn2c(=O)cc(COc3ccc(NC(=O)c4ccccc4Cl)cc3)nc2s1	-0.16
c1ccc2c(c1)OCC(C1=NCCN1)O2 (configuration not stated)	-0.99
COc1cccc(N2C(=O)C(CC(=O)Nc3ccccc3)N(CCc3sccc3C)C2=O)c1 (configuration not stated)	-0.46
CCn1cc(C(=O)N2CCN(c3cccc(C)c3)C(C)C2)c(=O)c2cc(S(=O)(=O)N3CCOCC3)ccc21 (configuration not stated)	0.16
COc1ccc(OC)c(NC(=O)CCNS(=O)(=O)c2cccc3nsnc23)c1	-0.52
O=C(Nc1ccc2oc(-c3cccc4c(Br)cccc34)nc2c1)c1ccc(F)cc1	0.98
Cc1ccc(CNC(=O)C(NS(=O)(=O)c2cccs2)C(C)C)cc1 (configuration not stated)	-0.22
Cc1nnc(CN2CCCC(CNC(=O)Cc3c[nH]c4ccccc34)C2)s1 (configuration not stated)	-1.9
Cn1nc(C(F)(F)F)c(Cl)c1C(=O)N1C2CCNCC1CC2 (configuration not stated)	-1.5
Cc1ccc2c(=O)cc(C(=O)Nc3nnc(C)s3)oc2c1	0.41
COc1ccc(Cl)cc1NC(=O)Cn1c(=O)n(Cc2ccco2)c(=O)c2ccc(C(=O)NC3CCCC3)cc21	-0.33
CCOC(=O)c1c(-c2ccc(OC)cc2)oc2ccc(OCc3ccc(Br)cc3)cc12	-0.31
CC(=O)c1cccc(NC(=O)c2cc3sc(Cl)cc3n2C)c1	-0.07
CCCN(CCC)CCNC(=O)C1CCCN(S(=O)(=O)c2cccc3nsnc23)C1 (configuration not stated)	-0.02
N#Cc1nn(-c2c(Cl)cc(C(F)(F)F)cc2Cl)c(N)c1S(=O)C(F)(F)F (configuration not stated)	-3.2
Cc1ccc(S(=O)(=O)c2nc(-c3ccc(F)cc3)oc2SCC(=O)NC2CCCCC2)cc1	1.8
O=C(CC1(O)C(=O)N(CCc2ccccc2)c2ccc(Br)cc21)c1ccc(F)cc1 (configuration not stated)	2.3
CCCn1c(=O)sc2cc(NC(=O)COc3ccc(Cl)cc3)ccc21	-3.5
COCc1nnc(NC(=O)CN(C)Cc2c(C)nc3ccccn23)s1	0.02
Cc1ccc(Nc2nnc(-c3ccc(C)c(S(=O)(=O)N4CCN(C)CC4)c3)c3ccccc23)cc1	-1.1
CCCCN(Cc1cccnc1)C(=O)c1cnc(C)[nH]c1=O	-1.1

From PubChem BioAssay
